Biofilm kill mix – mixtures killing C. albicans biofilm; C. albicans biofilm persisters + clotrimazole, fluorescence viability; primary screen in compound mixtures of four per well; inhibition, % at 7.6 µM; hit rate 0.02% among 120,000;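 active = inhibition above 30.3% in the primary screen of four-compound pools, then above 30% when the compound was retested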;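 also: compounds exposed to preformed 24 h biofilms for 48 h; the number belongs to the whole pool; some results filed as inactive read as strong as hits; inactives centre near 12; 0% = biofilm with clotrimazole alone and 100% = kill control; retested singly at about 60 µM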
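Probe or stimulus – Clotrimazole 50 µg/mL co-treatment · System – C. albicans biofilms · Schedule – 24 h biofilm formation, then 48 h compound exposure, 37 °C · Evaluation – percent inhibition of biofilm viability · Technique – 2-h Alamar Blue fluorescence, 535/590 nm excitation/emission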
* marks the source's active call; other numbers are inactive results. Only part of the results is shown. The share of hits here may be higher or lower than overall.

How did O=C1CCC(C(=O)N(Cc2cccs2)C2(C(=O)NC3CCCCC3)CCCCC2)N1 (stereo unspecified) do in these assays?
Biofilm kill mix: 18.4

Results for O=C(C1=C(Nc2ccccc2)c2ccccc2S(=O)(=O)N1)c1ccccc1 ?
Biofilm kill mix: 4.2

How did CC(C)(C)NC(=O)c1ccc(Cn2cc(C(F)(F)F)ccc2=O)cc1 do in these assays?
Biofilm kill mix: 6.2

What do the screens show for `COc1ccc(CCNC(=O)CCNC(=O)c2ccc(Cl)cc2)cc1OC`?
Biofilm kill mix: 19.2

How did CCOC(=O)C(Cc1c(F)cccc1Cl)c1ccno1 (stereo unspecified) do in these assays?
Biofilm kill mix: -3.9

How did S=C(NCc1ccc(Cl)c(Cl)c1)Nc1ccc2c(c1)OCO2 do in these assays?
Biofilm kill mix: 12.7

How did S=c1nc(-c2sccc2OCc2ccc(Cl)cc2Cl)[nH][nH]1 do in these assays?
Biofilm kill mix: 9.0

What do the screens show for `Cc1cc(N2C(=O)c3ccccc3C2=O)n(C)n1`?
Biofilm kill mix: 25.7

Results for COc1cc(/C=C2\Oc3cc(O)ccc3C2=O)ccc1O ?
Biofilm kill mix: 18.5

How did CN(C)c1cccc2c1c(NC(=O)Nc1ccc(F)cc1F)nn2C do in these assays?
Biofilm kill mix: 23.2

How did CCN(CC)c1ccc(NC(=O)COC(=O)CSc2ccc(Br)cc2C)cc1 do in these assays?
Biofilm kill mix: 3.7

How did Cc1ccc(Oc2nc(-c3cccnc3)nc3ccccc23)c([N+](=O)[O-])n1 do in these assays?
Biofilm kill mix: 5.4

What do the screens show for `O=C(O)c1ccc(N2C(=O)CC(SC(=Nc3ccccc3)Nc3ccccc3)C2=O)cc1` (stereo unspecified)?
Biofilm kill mix: 13.8

How did Cc1[nH]c2ccc(-c3n[nH]c(=S)n3-c3ccccc3)cc2c1C do in these assays?
Biofilm kill mix: 14.3

How did Cc1ccc(S(=O)(=O)N(C)C)cc1NC(=O)COC(=O)c1ccc2c(c1)NC(=O)CS2 do in these assays?
Biofilm kill mix: 34.6

Results for C#Cc1ccc([C@@H]2C=C(C(=O)NCc3ccccc3)O[C@H](OCc3ccc(CO)cc3)C2)cc1 ?
Biofilm kill mix: 13.0

Results for COc1c(F)c(F)c(C(=O)Nc2ccc(NC(=O)Cc3ccccc3)cc2)c(F)c1F ?
Biofilm kill mix: 3.2

What do the screens show for `Nc1nc(Nc2cccc(Cl)c2)n[nH]1`?
Biofilm kill mix: 5.7

How did COc1ccc(NC(=S)N2CCN(Cc3cccc(F)c3)CC2)c(OC)c1 do in these assays?
Biofilm kill mix: 8.3

How did O=C(CN1CCN(S(=O)(=O)c2ccc(Br)cc2)CC1)N/N=C/c1cc([N+](=O)[O-])ccc1Cl do in these assays?
Biofilm kill mix: 13.5

Results for S=C(c1ccc(N2CCCC2)c(Br)c1)N1CCCCC1 ?
Biofilm kill mix: 1.8

What do the screens show for `CC(C(=O)NCC1CCCO1)N1C(=O)C2C3CC(C(Br)C3Br)C2C1=O` (stereo unspecified)?
Biofilm kill mix: 18.3

Results for COc1ccc(CCNC(=O)C23CCC(C)(C(=O)O2)C3(C)C)cc1OC (stereo unspecified) ?
Biofilm kill mix: 9.7

Results for O=C1CN(C(=O)COC(=O)CNS(=O)(=O)c2ccccc2)c2ccccc2N1 ?
Biofilm kill mix: -0.7

Results for Cc1[nH]nc(SCC(=O)NCC(C)C)c1[N+](=O)[O-] ?
Biofilm kill mix: 9.2

What do the screens show for `Cc1ccc(NC(=O)N(CCC(=O)O)Cc2ccccc2)cc1`?
Biofilm kill mix: 22.4

Results for COc1cc2c(c(OC)c1OC)C(=O)CC2 ?
Biofilm kill mix: 11.3

What do the screens show for `CN1CCCN(C(=O)C2CCC(C(=O)N3CCCN(C)CC3)CC2)CC1` (stereo unspecified)?
Biofilm kill mix: 12.2

How did O=C(CCSCc1ccc(Cl)cc1)NCc1cccs1 do in these assays?
Biofilm kill mix: 20.4

How did COc1ccc(Cc2nc3ccccc3n2CC(=O)N/N=C/c2ccccc2)cc1OC do in these assays?
Biofilm kill mix: 19.9

Results for O/N=C1\CCCc2c1nc(-c1ccccc1F)n2O ?
Biofilm kill mix: 21.9

How did Cc1ccc(S(=O)(=O)Nc2cc(S(=O)(=O)N3CCCCC3)ccc2N2CCOCC2)cc1 do in these assays?
Biofilm kill mix: 2.9

What do the screens show for `CC(C)(C)N(Cc1ccccc1)C(=O)CCc1ccccc1`?
Biofilm kill mix: 13.3

Results for CC#C[C@]1(O)CC[C@H]2[C@@H]3CCC4=CC(=O)CCC4=C3[C@@H](c3ccc(N(C)C)cc3)C[C@@]21C ?
Biofilm kill mix: 9.9

How did Cc1cnc(CN(C)Cc2nc(Cc3cccc(C(F)(F)F)c3)no2)[nH]1 do in these assays?
Biofilm kill mix: 30.1

How did Oc1ccc(-c2csc(-c3c[nH]c4ccccc34)n2)c(O)c1 do in these assays?
Biofilm kill mix: 5.4

What do the screens show for `C=C(C)CNC(=S)NNC(=O)CCn1c2ccccc2c2ccccc21`?
Biofilm kill mix: -3.8

How did O=C(COc1ccc(F)cc1)N(c1ccccn1)C1CCCCC1 do in these assays?
Biofilm kill mix: -1.7

What do the screens show for `CC(C)(C)OC(=O)N1CCC[C@H]1C(=O)N/N=C/c1cccc2nccnc12`?
Biofilm kill mix: 13.7

What do the screens show for `COc1ccc(C2(c3ccc(OC)cc3)NC(=O)N(Cn3nnc4ccccc4c3=O)C2=O)cc1`?
Biofilm kill mix: 12.8

Three structures already listed, sorted by count of non-hydrogen atoms, falling.
What do the screens show for `COc1ccc(C2(c3ccc(OC)cc3)NC(=O)N(Cn3nnc4ccccc4c3=O)C2=O)cc1`?
Biofilm kill mix: 12.8

What do the screens show for `C=C(C)CNC(=S)NNC(=O)CCn1c2ccccc2c2ccccc21`?
Biofilm kill mix: -3.8

How did O=C(COc1ccc(F)cc1)N(c1ccccn1)C1CCCCC1 do in these assays?
Biofilm kill mix: -1.7

Next part.
What do the screens show for `CCOC(=O)C1CCC(CNCc2ccccc2C)CC1` (stereo unspecified)?
Biofilm kill mix: 22.1

Results for N#C/C(=C\c1ccccc1)C(=O)Nc1cc(S(=O)(=O)N2CCOCC2)ccc1N1CCCC1 ?
Biofilm kill mix: 15.8

What do the screens show for `COc1ccc(Cc2nnc(Nc3ccccc3OC)[nH]c2=O)cc1`?
Biofilm kill mix: 7.3

How did O=C(CSc1n[nH]c(=O)n1C1CC1)NCc1ccccc1Cl do in these assays?
Biofilm kill mix: 12.3

How did O=C(O)c1ccc(NS(=O)(=O)c2ccc3c(c2)OCCCO3)cc1 do in these assays?
Biofilm kill mix: 9.4

Results for COc1cc(/C=N/NC(=O)CCn2nc(C)cc2C)ccc1O ?
Biofilm kill mix: 50.9

Results for Cn1c(=O)[nH]c(=O)c2c1nc(NC1CCCCC1)n2CCO ?
Biofilm kill mix: 12.4

How did CCOC(=O)C(NC(=O)Nc1ccc(F)cc1F)(Oc1ccccc1)C(F)(F)F (stereo unspecified) do in these assays?
Biofilm kill mix: 10.1

How did O=c1c(O)cccc2cc(O)c(O)c(O)c12 do in these assays?
Biofilm kill mix: 12.3

How did O=C(CSc1nc(-c2ccccc2)cs1)Nc1ccccc1[N+](=O)[O-] do in these assays?
Biofilm kill mix: 13.4

What do the screens show for `CC(=O)Nc1ccc(/C(C)=N/NC(=O)C2CC2c2ccccc2)cc1` (stereo unspecified)?
Biofilm kill mix: 5.2

How did CCCc1n[nH]c(=S)n1Cc1ccco1 do in these assays?
Biofilm kill mix: 16.5

What do the screens show for `C#CCNC(=O)c1cccn1-c1ncc(C(F)(F)F)cc1Cl`?
Biofilm kill mix: 18.6

What do the screens show for `Fc1ccccc1Cc1noc(CN2CCCC(CN3CCOCC3)C2)n1` (stereo unspecified)?
Biofilm kill mix: 13.6

How did COc1cc(N2CCCC2)ccc1C=O do in these assays?
Biofilm kill mix: 12.0

How did COc1ccc(OCC(=O)NNC(=O)Cc2coc3cc(OC)ccc23)cc1 do in these assays?
Biofilm kill mix: 9.2

How did CC(=O)N1CCN(C(=O)c2cc(C)nc3ccccc23)CC1 do in these assays?
Biofilm kill mix: 5.6

What do the screens show for `COc1ccc(/C=C/C(=O)O)cc1S(=O)(=O)N1CCCc2ccccc21`?
Biofilm kill mix: 6.7

What do the screens show for `COc1ccccc1OCCNC(=O)C(=O)c1c[nH]c2ccccc12`?
Biofilm kill mix: 21.1

What do the screens show for `CCOc1ccc(C(=O)N[C@H](C(=O)Nc2ccc(OC)c(S(=O)(=O)N3CCOCC3)c2)C(C)C)cc1`?
Biofilm kill mix: 6.3

How did CCN(CC)S(=O)(=O)c1cccc(NC(=O)c2ccc(SC)cc2OC)c1 do in these assays?
Biofilm kill mix: -4.1

How did O=C(CSc1nn(-c2ccccc2)c(=S)s1)Nc1ncccn1 do in these assays?
Biofilm kill mix: 10.1

How did O=C(CCN1C(=O)C2C3C=CC(C3)C2C1=O)N1CCCCC1 (stereo unspecified) do in these assays?
Biofilm kill mix: 12.7

How did COc1ccc(/C=N/S(=O)(=O)c2ccccc2)cc1OC do in these assays?
Biofilm kill mix: 12.6

How did COc1ccc(/C=C/c2nnc(NC(=O)CSc3ccc(C)cc3)s2)cc1 do in these assays?
Biofilm kill mix: 18.6

How did CC(CCc1ccccc1)NC(=O)c1ccc2nc(N3CCOCC3)sc2c1 (stereo unspecified) do in these assays?
Biofilm kill mix: 12.3

What do the screens show for `CCOc1ccccc1NC(=O)COC(=O)c1cc[n+]([O-])cc1`?
Biofilm kill mix: 9.1

What do the screens show for `COc1ccc(C)cc1NC(=O)N1CCCc2ccccc21`?
Biofilm kill mix: 11.6

What do the screens show for `N#C/C(=C/c1ccc(-c2ccc(C(=O)O)c(Cl)c2)o1)C(=O)NCC1CCCO1` (stereo unspecified)?
Biofilm kill mix: 16.1

What do the screens show for `Cc1cc2nc(-c3ccc(SCC(=O)Nc4ccc(S(=O)(=O)N5CCCC5)cc4)nc3)[nH]c2cc1C`?
Biofilm kill mix: 10.5

Results for O=C(CNC(=O)c1cccs1)OCC(=O)c1ccc(Br)cc1 ?
Biofilm kill mix: 21.3

Results for CCOC(=O)c1c(NC(=S)NC)sc2c1CCCC2 ?
Biofilm kill mix: 10.6

Results for O=C(/C=C/c1ccco1)N1CCN(S(=O)(=O)c2cccs2)CC1 ?
Biofilm kill mix: 23.5

What do the screens show for `CC(=O)n1cc([C@@H]2C=C(C(=O)NCc3ccccc3)O[C@H](OCc3ccc(CO)cc3)C2)c2ccccc21`?
Biofilm kill mix: 13.6

How did CC(On1c(-c2ccccc2)nc2ccc(Cl)cc21)C(=O)O (stereo unspecified) do in these assays?
Biofilm kill mix: 13.5

What do the screens show for `CC(NC(=O)COC(=O)c1ccccc1Nc1ccccc1)c1ccccc1` (stereo unspecified)?
Biofilm kill mix: 10.9

What do the screens show for `Cc1ccc(NC(=O)CCC(=O)NNC(=O)c2ccccc2Cl)c(C)c1`?
Biofilm kill mix: 14.9

What do the screens show for `COc1ccc(CC(=O)OC(C)CN2CCOCC2)cc1` (stereo unspecified)?
Biofilm kill mix: 16.0

What do the screens show for `O=C(c1ccco1)N1CCN(c2ncnc3c2[nH]c2ccc(Cl)cc23)CC1`?
Biofilm kill mix: 14.4

How did Cc1c(N2C(=O)/C(=C\C3CC=CCC3)SC2=S)c(=O)n(-c2ccccc2)n1C (stereo unspecified) do in these assays?
Biofilm kill mix: 7.1

5 compounds picked at random from those above:
Results for CCOC(=O)c1c(NC(=S)NC)sc2c1CCCC2 ?
Biofilm kill mix: 10.6

What do the screens show for `O=C(c1ccco1)N1CCN(c2ncnc3c2[nH]c2ccc(Cl)cc23)CC1`?
Biofilm kill mix: 14.4

What do the screens show for `Cc1ccc(NC(=O)CCC(=O)NNC(=O)c2ccccc2Cl)c(C)c1`?
Biofilm kill mix: 14.9

What do the screens show for `CC(=O)n1cc([C@@H]2C=C(C(=O)NCc3ccccc3)O[C@H](OCc3ccc(CO)cc3)C2)c2ccccc21`?
Biofilm kill mix: 13.6

How did CC(On1c(-c2ccccc2)nc2ccc(Cl)cc21)C(=O)O (stereo unspecified) do in these assays?
Biofilm kill mix: 13.5

Additional records follow:
What do the screens show for `CCOC(=O)C(=O)NNc1ccc(Cl)cc1`?
Biofilm kill mix: 23.7

How did CC(C)CCNC(=O)C(c1ccco1)N(CCCO)C(=O)Cn1nnc(-c2ccc(F)cc2)n1 (stereo unspecified) do in these assays?
Biofilm kill mix: 27.5

How did O=C(CCCCO)CCCCCCCC[C@H]1N[C@H](CO)[C@H](O)[C@@H]1O[C@@H]1O[C@H](CO)[C@@H](O)[C@H](O)[C@H]1O do in these assays?
Biofilm kill mix: 18.6

Results for Cc1sc2nc(CSc3nnnn3-c3ccc(Cl)cc3)[nH]c(=O)c2c1C ?
Biofilm kill mix: -12.1

How did O=C(COc1ccccc1C(=O)c1cnn(-c2ccccc2)c1)Nc1ccc2ccccc2c1 do in these assays?
Biofilm kill mix: 14.4

Results for Cc1ccc(C2NC(=S)NC3=C2C(=O)CCC3)cc1 (stereo unspecified) ?
Biofilm kill mix: 0.3

Results for Cc1cccc(C(C)C)c1NC(=O)COC(=O)Cc1ccsc1 ?
Biofilm kill mix: 4.9

What do the screens show for `COc1ccc(-c2cc(C(=O)NC(Cc3cc4ccccc4[nH]3)C(=O)O)c(C)o2)cc1OC` (stereo unspecified)?
Biofilm kill mix: -2.9

What do the screens show for `COc1cccc(NC(=O)CN(C)C(C)C(=O)Nc2ccc(C(C)=O)cc2)c1` (stereo unspecified)?
Biofilm kill mix: -0.4

What do the screens show for `CC(C)CC(=O)NC(=S)NNC(=O)c1ccc(NC(=O)C2CCCCC2)cc1`?
Biofilm kill mix: 14.9

Results for CCc1ccc(/C=C/C(=O)c2ccc(N3CCOCC3)cc2)cc1 ?
Biofilm kill mix: 8.1

What do the screens show for `COc1ccc(NC(=O)Cn2nnc(C(=O)NCCc3ccccc3)c2N)cc1`?
Biofilm kill mix: 17.9

Assay outcomes from PubChem BioAssay.
